Compound activity from PubChem BioAssay.
HSV augment = HSV replication enhancement. HSV replication augmentation in cells, fold increase. maximum fold increase. 220,000 compounds, 0.005% hits. AID 1956;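 active = peak rise of 1.5-fold or more in the series; tested in PC3 cells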;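 note: first round at 10 µM; read as green reporter fluorescence; hits show the peak of a series up to 25 µM; 1 = signal of infected wells without compound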
RGS16-Gao HTS = regulators of human RGS16-Galphao interaction; O15492+P09471; binding response (% of control), % at 10 µM; AID 1441; 220,000 compounds, 0.38% hits; bead-based flow cytometry RGS16-Galphao binding, fluorescence; actives lie on both sides;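 active = below 25% or above 175%, edge rows of some plates excepted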;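 note: Galphao activated by GDP with aluminum fluoride before binding; 100% = wells without compound and 0% = beads without RGS; some results beyond the cut were filed as inactive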
Target sequence (O15492 whole entry, looked up): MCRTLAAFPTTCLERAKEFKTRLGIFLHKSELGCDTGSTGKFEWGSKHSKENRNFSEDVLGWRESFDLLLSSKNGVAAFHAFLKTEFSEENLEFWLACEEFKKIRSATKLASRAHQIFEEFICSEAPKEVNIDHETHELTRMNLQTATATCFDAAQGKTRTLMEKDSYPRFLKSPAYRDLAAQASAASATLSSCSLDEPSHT
Target sequence (P09471 whole entry, looked up): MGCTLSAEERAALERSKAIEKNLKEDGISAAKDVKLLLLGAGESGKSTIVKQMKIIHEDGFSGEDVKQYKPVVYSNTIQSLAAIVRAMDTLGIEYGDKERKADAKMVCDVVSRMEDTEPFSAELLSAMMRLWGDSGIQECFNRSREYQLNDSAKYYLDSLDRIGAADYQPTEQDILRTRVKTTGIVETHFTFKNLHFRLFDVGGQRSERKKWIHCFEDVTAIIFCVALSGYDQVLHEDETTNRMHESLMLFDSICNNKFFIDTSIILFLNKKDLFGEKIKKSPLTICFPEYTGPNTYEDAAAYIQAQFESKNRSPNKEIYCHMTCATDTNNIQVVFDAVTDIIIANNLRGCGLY
Insulin prom inh = TRM-6 insulin promoter activity inhibition; TRM-6 cells (human fetal islet line), insulin promoter-eGFP reporter, imaging; reporter expression induced with tamoxifen; inhibition, % at 2 µM; 130,000 compounds, 0.9% hits;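 active = inhibition above the mean plus 3 SD, with well images judged a real hit on visual review, cut at about 60% in these data, passing the limit was not always enough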
GALR2 agonist = activates the human galanin receptor 2; GALR2-expressing cells, agonist activation read-out; 140,000 compounds, 0.48% hits; O43603; AID 803; activation, %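 (tested at 5 µM)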;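 active = above mean plus 3 SD of all compounds, about 5% in these data, not always enough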;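 note: 0% = vehicle buffer wells and 100% = reference agonist at full effect; tested in CHO reporter cells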
PKD1 kinase inh = blocks activity of human protein kinase D1; 200,000 compounds, 0.056% hits; PKD1 kinase fluorescence polarization assay; inhibition, %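 (about 10 µM by stock and volumes)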; Q15139;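 active = inhibition of 50% or more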;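 note: controls were vehicle for no effect and a reference inhibitor for full effect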
Insulin prom inh cell count = further read-out of Insulin prom inh, marked with its call; normalized cell count, %; measured here: cell count, toxicity; reference of the scale not given here;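 cells exposed to compound for 48 h; stained nuclei by imaging scaled within each plate; lower means fewer cells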
HSV augment primary fold = further read-out of HSV augment, marked with its call; fold increase; compound at 10 µM; measured here: primary screen fold increase 10 uM; tested in PC3 cells;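 GFP signal in the first replicate; 1 = infected wells without compound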
Numbers without * were called inactive; i = inactive; · = not tested or not shown.

Screens by letter – A = HSV augment; B = HSV augment primary fold; C = RGS16-Gao HTS; D = Insulin prom inh; E = Insulin prom inh cell count; F = GALR2 agonist; G = PKD1 kinase inh
> O=C(COC(=O)CCC1CCCC1)Nc1ccccc1Sc1ccccc1
  A = i | B = 1 | C = 108 | D = 10 | E = 101 | F = -0.8 | G = -4

> CCOC(=O)N1CCN(C2CC(=O)N(c3ccc(F)cc3)C2=O)CC1 (centres undefined)
  A = i | B = 0.94 | C = 94 | D = 3 | E = 95 | F = 3.0 | G = -1

> Cc1cc(-c2ccc(F)cc2)nc2cc(C(N)=O)nn12
  A = i | B = 0.86 | C = 103 | D = -8 | E = 99 | F = -0.3 | G = 0

> O=C(O)CC(C(=O)O)c1cn(Cc2ccccc2)c2ccccc12 (centres undefined)
  A = i | B = 1.1 | C = 103 | D = 28 | E = 76 | F = -0.7 | G = 2

> O=C(CN1C(=O)C2CC=CCC2C1=O)NCc1ccc2c(c1)OCO2 (centres undefined)
  A = i | B = 0.99 | C = 103 | D = 18 | E = 78 | F = -0.7 | G = -6

> CC(=O)c1nc(N2C(=O)CC(Cc3cc(C)cc(C)c3)C2=O)sc1C (centres undefined)
  A = i | B = 0.95 | C = 102 | D = -32 | E = 104 | F = -0.6 | G = -7

> COc1cc(C(C)=O)ccc1OCC(O)CN(CCO)Cc1ccccc1 (centres undefined)
  A = i | B = 0.99 | C = 106 | D = -42 | E = 100 | F = · | G = 0

> Cc1noc(/C=C/N(C)C)c1S(=O)(=O)N1CCCC(C(=O)NC(C)c2ccccc2)C1 (centres undefined)
  A = i | B = 0.85 | C = 79 | D = · | E = · | F = -2.8 | G = -14

> CC(=O)Oc1ccc(-c2cccc(C(=O)NCC(=O)O)c2)cc1
  A = i | B = 0.85 | C = 103 | D = -22 | E = 188 | F = -0.8 | G = -9

> C=CCc1cc(/C=N/n2cnnc2)cc(OCC)c1O
  A = i | B = 0.9 | C = 109 | D = -18 | E = 83 | F = -0.5 | G = -3

Screens by letter – A = HSV augment; B = HSV augment primary fold; C = RGS16-Gao HTS; D = Insulin prom inh; E = Insulin prom inh cell count; F = GALR2 agonist; G = PKD1 kinase inh
> Cc1ccc(-n2nc(C)c3cc(C(=O)O)sc32)cc1
  A = i | B = 0.97 | C = 102 | D = 33 | E = 131 | F = -2.2 | G = 9

> O=c1[nH]c2ccccc2c(O)c1Cc1ccccc1
  A = i | B = 1 | C = 107 | D = · | E = · | F = · | G = -2

> Nc1ccc(Nc2nc(-c3cccs3)cs2)cc1
  A = i | B = 0.91 | C = 101 | D = 63 | E = 123 | F = · | G = 1

> Cc1ccc(-c2ccc(=O)n(CC(=O)N3CCN(c4cccc(C)c4)C(C)C3)n2)cc1 (centres undefined)
  A = i | B = 0.8 | C = 107 | D = -28 | E = 120 | F = 0.8 | G = -4

> C/C(=N\N=C(N)N)c1ccc(Cl)cc1
  A = i | B = 0.9 | C = 45 | D = -8 | E = 83 | F = -2.6 | G = -8

> CCn1c(-c2nn(C)c(C)c2Cl)n[nH]c1=S
  A = i | B = 1 | C = 101 | D = · | E = · | F = -2.4 | G = 2

> COc1ccc(-n2nnnc2SCC(N)=O)cc1
  A = i | B = 1.1 | C = 102 | D = 25 | E = 141 | F = -2.3 | G = -11

> Nc1c(C(=O)Nc2ccccc2F)sc2nc(-c3ccco3)ccc12
  A = i | B = 1.1 | C = 83 | D = -16 | E = 211 | F = -0.6 | G = 2

> Cc1ccc(F)cc1S(=O)(=O)NCc1ccc(N2CCN(C)CC2)cc1
  A = i | B = 1 | C = 118 | D = · | E = · | F = · | G = ·

> O=C(COC(=O)c1ccc(S(=O)(=O)N2CCCC2)cc1)Nc1ccc(N2CCOCC2)cc1
  A = i | B = 1.1 | C = 102 | D = -8 | E = 98 | F = · | G = -6

| Structure | HSV augment | HSV augment primary fold | RGS16-Gao HTS | Insulin prom inh | Insulin prom inh cell count | GALR2 agonist | PKD1 kinase inh |
| --- | --- | --- | --- | --- | --- | --- | --- |
| CC(=O)Nc1ccccc1NC(=O)C/C(C)=N/NC(=O)c1ccncc1 | i | 1 | 96 | · | · | · | -3 |
| Cc1cc(C)n(Cc2cc(C(=O)O)c3ccccc3n2)n1 | i | 0.97 | 104 | · | · | · | 0 |
| O=C(CCNC(=O)Cn1ccc2ccccc2c1=O)NCc1ccc(F)cc1Cl | i | 0.89 | 105 | · | · | · | 4 |
| C/C(=N\Nc1nnc2c3ccccc3n(C)c2n1)c1ccc(C)o1 | · | · | 60 | 0 | 113 | 0.7 | -1 |
| CC(NC(=O)c1cccs1)c1ccc2c(c1)OCO2 (centres undefined) | i | 1.1 | 100 | -67 | 75 | -2.2 | -4 |
| COc1ccc(C(=O)NC(=S)NNC(=O)c2ccc(NC(C)=O)cc2)cc1Br | i | 0.92 | 136 | · | · | · | 0 |
| CCN(CC)S(=O)(=O)c1ccc(C(=O)NNc2nc(-c3ccccc3)c3cc(Br)ccc3n2)cc1 | i | 0.92 | 100 | · | · | 1.5 | -1 |
| O=C(Nc1ccccc1Cl)N1CCN(c2ccc3nnc(-c4ccc(F)cc4)n3n2)CC1 | · | · | 103 | -121 | 92 | -0.8 | -9 |
| COCCN=c1scc(-c2ccco2)n1/N=C/c1ccc(O)c(O)c1O | i | 1.1 | 82 | · | · | · | -2 |
| CCN(CC)S(=O)(=O)c1ccc(C(=O)N2CCN=C2SC)cc1 | i | 0.88 | 100 | -29 | 84 | -0.4 | -6 |

Full records as entered above.
Profile of `Cc1cc(C)n(Cc2cc(C(=O)O)c3ccccc3n2)n1` → HSV augment: i; HSV augment primary fold: 0.97; RGS16-Gao HTS: 104; Insulin prom inh: ·; Insulin prom inh cell count: ·; GALR2 agonist: ·; PKD1 kinase inh: 0
Profile of `CCN(CC)S(=O)(=O)c1ccc(C(=O)N2CCN=C2SC)cc1` → HSV augment: i; HSV augment primary fold: 0.88; RGS16-Gao HTS: 100; Insulin prom inh: -29; Insulin prom inh cell count: 84; GALR2 agonist: -0.4; PKD1 kinase inh: -6

In the list so far, three have an aryl methoxy group:
| Structure | HSV augment | HSV augment primary fold | RGS16-Gao HTS | Insulin prom inh | Insulin prom inh cell count | GALR2 agonist | PKD1 kinase inh |
| --- | --- | --- | --- | --- | --- | --- | --- |
| COc1cc(C(C)=O)ccc1OCC(O)CN(CCO)Cc1ccccc1 (centres undefined) | i | 0.99 | 106 | -42 | 100 | · | 0 |
| COc1ccc(-n2nnnc2SCC(N)=O)cc1 | i | 1.1 | 102 | 25 | 141 | -2.3 | -11 |
| COc1ccc(C(=O)NC(=S)NNC(=O)c2ccc(NC(C)=O)cc2)cc1Br | i | 0.92 | 136 | · | · | · | 0 |

Carrying on.
| Structure | HSV augment | HSV augment primary fold | RGS16-Gao HTS | Insulin prom inh | Insulin prom inh cell count | GALR2 agonist | PKD1 kinase inh |
| --- | --- | --- | --- | --- | --- | --- | --- |
| CN(C)C(=O)Nc1ccccc1CC[N+](=O)[O-] | i | 0.98 | 111 | -9 | 115 | · | -6 |
| COCc1[nH][nH]c(=O)c1C=Nc1ccc(C(F)(F)F)cc1 | i | 0.89 | 97 | · | · | · | -7 |
| CCc1ccc2nc(Nc3ccc(OC)cc3OC)c(C#N)cc2c1 | i | 1.1 | 99 | -88 | 64 | · | -5 |
| CCOc1ccc(Cn2ccnc2)cc1[N+](=O)[O-] | i | 1.1 | 80 | -17 | 75 | -0.8 | -2 |
| COc1ccc(C/C(C)=N\NC(=O)c2c[nH]c3ccccc23)cc1OC | i | 1 | 101 | · | · | · | · |
| COc1ccc(C2/C(=C(\O)c3ccc4c(c3)OCCO4)C(=O)C(=O)N2Cc2ccco2)c(OC)c1 (centres undefined) | i | 1 | 113 | 58 | 111 | -2.9 | -2 |

In the list so far, four contain a COOH group.
| Structure | HSV augment | HSV augment primary fold | RGS16-Gao HTS | Insulin prom inh | Insulin prom inh cell count | GALR2 agonist | PKD1 kinase inh |
| --- | --- | --- | --- | --- | --- | --- | --- |
| O=C(O)CC(C(=O)O)c1cn(Cc2ccccc2)c2ccccc12 (centres undefined) | i | 1.1 | 103 | 28 | 76 | -0.7 | 2 |
| CC(=O)Oc1ccc(-c2cccc(C(=O)NCC(=O)O)c2)cc1 | i | 0.85 | 103 | -22 | 188 | -0.8 | -9 |
| Cc1ccc(-n2nc(C)c3cc(C(=O)O)sc32)cc1 | i | 0.97 | 102 | 33 | 131 | -2.2 | 9 |
| Cc1cc(C)n(Cc2cc(C(=O)O)c3ccccc3n2)n1 | i | 0.97 | 104 | · | · | · | 0 |
